CSC inhib: blocks cancer stem cells; 300,000 compounds, 1.1% hits; AID 2717; cancer stem cell-like cells viability, luminescence; inhibition, % at 7.5 µM;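 active means mean at 75% or more and at least half the replicates too; tested in HMLE shEcad cells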;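 further: 0% = median of negative and 100% = median of positive control wells; the first replicate is given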
Rce1 inh: blocks yeast Ras-converting enzyme; Q03530; yeast membranes, quenched prenylated peptide cleavage fluorescence; calls only; 290,000 compounds, 0.27% hits; AID 2563;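 active means fall in fluorescence gain of 50% or more versus controls, with final raw signal at or below 3038400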;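 further: plate controls were neutral control wells for no effect and wells lacking membranes for full effect; tested at 10 µM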
Target sequence (Q03530 whole entry, looked up): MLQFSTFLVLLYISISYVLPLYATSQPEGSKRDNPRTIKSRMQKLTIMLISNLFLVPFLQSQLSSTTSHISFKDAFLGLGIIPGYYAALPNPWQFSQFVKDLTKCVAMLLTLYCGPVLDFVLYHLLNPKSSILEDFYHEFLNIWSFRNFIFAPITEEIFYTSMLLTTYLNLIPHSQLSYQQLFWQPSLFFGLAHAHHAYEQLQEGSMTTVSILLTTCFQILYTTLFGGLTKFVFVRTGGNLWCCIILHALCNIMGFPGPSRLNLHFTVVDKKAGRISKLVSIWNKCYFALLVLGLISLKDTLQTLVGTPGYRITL
UUG fidelity: modulators of start codon recognition fidelity in yeast; S. cerevisiae UUG-firefly luciferase reporter, luminescence/redox ratio; activity score, % at 18.7 µM; 350,000 compounds, 0.13% hits; AID 602363;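 active means replicate mean at a twofold rise or more, about +100% in these data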;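 further: firefly luciferase made from a UUG start codon reports start codon fidelity; reporter light over untreated wells divided by growth signal over untreated wells; some hits fall short of that in this replicate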
PABP FP inh: blocks human PABP binding to poly(A) RNA; 290,000 compounds, 1% hits; P11940; fluorescence polarization; inhibition, % at 35 µM;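 active means 50% or more with normal probe brightness, or confirmed in later tests; about a fifth of its hits are not listed in these tables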;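 further: calls also rest on retests at 20 µM and on dose response follow-up; controls were probe without protein and protein plus probe with vehicle; some compounds called inactive have numbers as strong as hits; many hits fall short of the cut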
Target sequence (P11940 whole entry, looked up): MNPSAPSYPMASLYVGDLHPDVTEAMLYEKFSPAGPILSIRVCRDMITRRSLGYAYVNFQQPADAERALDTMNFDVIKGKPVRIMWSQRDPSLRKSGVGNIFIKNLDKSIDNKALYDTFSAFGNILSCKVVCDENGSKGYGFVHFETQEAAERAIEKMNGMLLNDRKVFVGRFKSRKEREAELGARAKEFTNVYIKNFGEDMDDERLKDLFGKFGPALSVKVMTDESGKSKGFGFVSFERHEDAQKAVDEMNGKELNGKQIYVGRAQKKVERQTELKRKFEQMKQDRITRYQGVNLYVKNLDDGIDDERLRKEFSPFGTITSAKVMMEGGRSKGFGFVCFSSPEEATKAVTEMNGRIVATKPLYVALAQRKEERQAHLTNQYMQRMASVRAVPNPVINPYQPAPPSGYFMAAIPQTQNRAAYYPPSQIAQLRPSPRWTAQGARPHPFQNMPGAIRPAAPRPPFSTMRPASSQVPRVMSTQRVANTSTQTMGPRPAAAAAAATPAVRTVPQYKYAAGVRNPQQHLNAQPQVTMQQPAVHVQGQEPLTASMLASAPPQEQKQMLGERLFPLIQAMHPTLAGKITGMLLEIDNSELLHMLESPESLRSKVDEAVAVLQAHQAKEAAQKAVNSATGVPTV
HIV Env fusion: inhibitors of HIV Env-mediated cell fusion; HeLa-JRFL Env/CEM21 cell fusion, luciferase; inhibition, % at 12.3 µM; 360,000 compounds, 1.1% hits; AID 651610;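 active means mean replicate inhibition score of at least 50 and every replicate individually at or above 50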;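 further: 0% = plate neutral controls and 100% = maraviroc near 300 nM; one replicate is shown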
eIF4H inh: inhibitors of RNA binding by human eIF4H | inhibition, % at 35 µM | 290,000 compounds, 0.94% hits | eIF4H fluorescence polarization binding assay | Q15056;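 active means 50% or more with normal probe brightness, or confirmed in later tests; about a fifth of its hits are not listed in these tables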;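 further: calls also rest on retests at 20 µM and on dose response follow-up; 0% = protein and probe with vehicle and 100% = probe without protein; strong numbers were not always called active; many hits fall short of the cut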
MT1-MMP act inh: blocks activation of human MT1-MMP; HT1080 RFP-PRO-GFP cells, GFP/RFP ratio fluorescence, overnight; percent of plate control window, DMSO zero; 360,000 compounds, 0.061% hits; P50281; GFP/RFP ratio change, % at 20 µM; AID 651647;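 active means GFP/RFP ratio change of at least 30% with cell ATP level not reduced by more than half and red fluorescence within 50% of control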; further: strong numbers were not always called active
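Assay system: HT1080 RFP-PRO-GFP cells. Benchmarks: DMSO vehicle wells and RFP-L50D-GFP reporter cell wells. Times: overnight cell settling, then overnight compound exposure, 37 °C, 5% CO2. Compound: 20 µM single dose, 1% DMSO. Read-out basis: GFP/RFP fluorescence ratio.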
eIF4H inh retest: second read-out of eIF4H inh, no call of its own (marks repeat the call); inhibition, %; compound at 20 µM; confirmation average;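 mean of two retest wells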
PABP FP inh retest: second read-out of PABP FP inh, no call of its own (marks repeat the call); inhibition, %; compound at 20 µM; confirmation repeats;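 mean of two retest wells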
MT1-MMP act inh RFP: recorded beside MT1-MMP act inh, whose call it bears; RFP signal change, %; measured here: RFP expression control read;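 0 = vehicle wells; hits needed this value within 50% of zero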
* hit, by the source's call; i = inactive; · = no result given; & = joins results of further samples; [ ] = dose if it differs, or a comment. The list is partial (hit frequency here may not be typical).

SMILES	CSC inhib	Rce1 inh	UUG fidelity	PABP FP inh	HIV Env fusion	eIF4H inh	MT1-MMP act inh	MT1-MMP act inh RFP	others
CN(C)c1cc(-c2ccccc2)nc(-c2ccccc2)n1	-17	i	-6	-6	10	-1	0	3
C=Cn1cc(CNC[C@H]2O[C@@H](n3cc(C)c(=O)[nH]c3=O)C[C@@H]2O)c(C)n1	·	·	-4	·	5	·	1	4
Cc1sc2ncn(-n3c(C)ccc3C)c(=O)c2c1C	·	i	-12	9	·	-5	1	5
C=CCN(CC=C)S(=O)(=O)c1ccc(C(=O)Nc2nc3c(s2)CCc2ccccc2-3)cc1	21	i	-13	9	-69	1	0	-6
Cc1cccc(OC2CCN(Cc3nc(CC4CC4)no3)CC2)c1	-4	i	-9	-10	10	2	5	5
COc1cc(NC(=O)COC(=O)CO/N=C(\C)c2ccc3c(c2)OCO3)cc(OC)c1OC	0	i	·	·	1	·	4	0
CCN(Cc1ccncc1)C(=O)CCc1ccccc1	-4	i	-11	-6	-44	-2	0	0
O=C(Nc1ccc(N2CCOCC2)cc1)C1=NN(c2ccccc2)C(=O)CC1	·	·	0	·	-22	·	-2	8
COc1ccc(NC(=O)c2cc(F)cc(F)c2)cc1Cl	-7	i	-19	-3	-90	1	0	0
OC1(c2cccc(F)c2)CCN(Cc2ccncc2)CC1	0	·	-2	1	-44	-4	0	4
O=C(COc1cccc(Cl)c1)NCc1ccccc1	-6	i	40	-11	11	-2	5	2
COc1ccccc1N1CCN(C(=O)C(=O)N/N=C/c2ccccc2F)CC1	-9	i	-7	-1	27	8	-3	3
C=CCNC(=S)Nc1ccc(F)cc1F	-5	i	·	1	3	-5	0	-4
CCS(=O)(=O)N1CCN(C(=O)c2cccc3ccccc23)CC1	6	i	-11	-13	-6	-4	1	5
CC(C)Cn1c(-c2ccc(C#N)cc2)nc2c1c(=O)[nH]c(=O)n2CC(C)C	-21	i	-4	4	·	7	2	3
CCC1CCCCN1C(=O)CSc1nc2c(c(=O)n(C)c(=O)n2C)n1C (centres undefined)	-17	i	·	-5	18	-10	2	4
CCOC(=O)c1cc2c(C(F)(F)F)cc(-c3ccccc3)nc2o1	-6	i	·	-1	14	4	-16	-6
COc1ccc(OCC(=O)N2CCCC(CO)(CCOc3ccccc3)C2)cc1 (centres undefined)	-5	i	-11	2	17	3	0	-10
CS(=O)(=O)N(CCc1ccccc1)CC(=O)NCc1ccc2c(c1)OCO2	-2	i	-14	2	·	1	3	-1
O=C(CSc1nnc(-c2cccs2)n1-c1ccccc1)N1CCOCC1	-18	i	12	-4	-9	-6	2	1
Nn1c(SCC(=O)Nc2ccc(N3CCOCC3)cc2)nnc1-c1cccc(F)c1	-1	·	-6	·	-3	·	4	2
O=C1/C(=C/c2coc3ccc(O)cc3c2=O)SC(=S)N1c1ccccc1	4	i	-27	9	4	3	22	41
O=C(Nc1cc(Oc2ccc(Cl)cc2)cc([N+](=O)[O-])c1)c1ccco1	63	i	·	7	·	-4	3	-3
Cc1noc(C)c1NC(=O)N(C)C[C@H]1Oc2c(NC(=O)NC(C)C)cccc2C(=O)N([C@H](C)CO)C[C@@H]1C	-5	·	4&-7	·	1[16.7 µM]	·	2	0
CCCNC(=S)N1CCN(C(c2ccccc2)c2ccccc2)CC1	24	i	-18	0	-11	2	-12	-4
C=CCOc1ccc(/C=C2\C(=N)N3N=C(S(=O)(=O)CC)SC3=NC2=O)cc1OC	12	i	-9	7	-1	1	-4	2
CN1CCC(=NNC(=O)C(=O)NC2CCCCC2)CC1	-4	i	-3	-14	·	2	0	2
COc1ccc2nc(NC(=O)c3c(C)noc3C)sc2c1	-14	·	-9	·	-79	·	2	-1
N=c1c2c3c(sc2nc2n1CCCCC2)CCCC3	22	i	-9	3	·	5	1	3
CCOc1cc(/C=C2\C(=O)NN(c3ccccc3)C2=O)cc([N+](=O)[O-])c1O	-12	·	·	-4	19	43	6	3

Quoted at random: three entries already listed, in no set order.
SMILES	CSC inhib	Rce1 inh	UUG fidelity	PABP FP inh	HIV Env fusion	eIF4H inh	MT1-MMP act inh	MT1-MMP act inh RFP	others
CCOc1cc(/C=C2\C(=O)NN(c3ccccc3)C2=O)cc([N+](=O)[O-])c1O	-12	·	·	-4	19	43	6	3
Cc1noc(C)c1NC(=O)N(C)C[C@H]1Oc2c(NC(=O)NC(C)C)cccc2C(=O)N([C@H](C)CO)C[C@@H]1C	-5	·	4&-7	·	1[16.7 µM]	·	2	0
O=C(Nc1cc(Oc2ccc(Cl)cc2)cc([N+](=O)[O-])c1)c1ccco1	63	i	·	7	·	-4	3	-3

Next section.
SMILES	CSC inhib	Rce1 inh	UUG fidelity	PABP FP inh	HIV Env fusion	eIF4H inh	MT1-MMP act inh	MT1-MMP act inh RFP	others
CCn1c2ccccc2c2cc(NS(=O)(=O)c3ccccc3C)ccc21	64	i	6	0	·	-4	3	-9
CC1CC(C)(C)CC2(C1)NC(=O)N(CC(=O)OCC(=O)Nc1cc(S(=O)(=O)N3CCCCC3)ccc1Cl)C2=O (centres undefined)	·	·	-6	·	-9	·	-1	0
CC(=O)c1cccc(NC(=O)c2nccnc2C(=O)O)c1	-10	i	-19	-8	-70	-4	-1	1
CCc1nnc(NC(=O)CSc2ccc(-c3ccc(-n4cccn4)cc3)nn2)s1	8	i	·	·	-14	·	7	1
CC(C(=O)Nc1ncc2c(n1)CC(C)(C)CC2=O)N1C(=O)c2ccccc2C1=O (centres undefined)	-4	i	-6	-2	·	-1	2	5
CC1=C(C(=O)OCc2ccccc2)C(c2ccc(Cl)cc2)NC(=O)N1CCCCCC(=O)O (centres undefined)	-6	i	-26	-7	30	1	0	-1
OCc1nc2ccccc2n1CCOc1ccccc1	-8	i	·	·	4	·	-1	-6
Cc1ccc(Cl)cc1NC(=S)N1CCC(c2ccccc2)C1 (centres undefined)	0	i	·	7	4	5	5	2
O=C(c1ccc(Cl)c(F)c1F)N1CCCC1	-4	·	-8	11	35	-9	-1	2
Nc1nc(COC(=O)C2CCN(C(=O)c3ccc(Cl)cc3)CC2)nc(Nc2ccccc2)n1	-12	·	-9	·	i	·	6	-3
Cc1ccc(S(=O)(=O)N2CCCCC2)cc1NC(=O)CSc1nnc(C2CC2)n1C	-10	·	2	·	·	·	2	-3
Cc1ccc2nc(CSc3nnc(Cc4cccs4)n3C3CCCCC3)cc(=O)n2c1	-4	i	-4	-2	-8	8	-11	-11
CCOC(=O)C1CCCN(C(=O)c2cc(-c3ccc(C)cc3)nc3ccccc23)C1 (centres undefined)	6	i	·	29	7	-4	2	-6
Nc1nc(NCc2ccco2)nc(N2CCCCCC2)c1[N+](=O)[O-]	-11	i	4	19	·	5	6	-20
Cc1ccc(S(=O)(=O)Cn2nnnc2C(CC(C)C)N2CCN(c3ccc(F)cc3)CC2)cc1 (centres undefined)	4	i	-2	0	-26	-14	-3	-4
COC(=O)COc1ccc(S(=O)(=O)N2CCOCC2)cc1C	·	i	·	-1	-5	-6	6	3
CCn1cc(C(=O)NCCCOC)c(=O)c2cc(S(=O)(=O)N3CCC(C)CC3)ccc21	1	i	-19	-3	3	-1	-1	0
Cc1c(-c2ccccc2)oc2c(C(=O)OCC(=O)Nc3cccc(F)c3)cccc2c1=O	0	i	-1	51	-3	-4	2	1	eIF4H inh retest=6;PABP FP inh retest=4
COc1ccccc1CNC(=O)c1cc2sccc2n1C	·	i	·	-5	·	-9	5	3
CC(C)CCn1c(NCCN(C)C)nc2c1c(=O)[nH]c(=O)n2C	-13	i	-7	-7	·	-3	-2	3
Cc1cc(NC(=O)c2ccccc2)n(C(C)(C)C)n1	-1	i	-6	4	1	4	2	-2
C[C@H](O)[C@H](O)[C@H]1CNc2nc(N)[nH]c(=O)c2N1	-8	i	-18	·	18	·	-4	3
COc1ccc2[nH]c(=O)c(CN(CCN(C)C)C(=O)NCc3ccccc3)cc2c1	-16	i	-8	0	·	6	3	6
O=C(O)CCSc1nc2ccc(Br)cc2[nH]1	-7	i	-7	7	·	-2	4	4
O=C1C2CC=CCC2C(=O)N1c1ccc(OCC(O)Cn2nnc3ccccc32)cc1 (centres undefined)	-13	i	-14	5	6	-7	-1	-10
CN1CCN(C(=S)NC(=O)c2cccc([N+](=O)[O-])c2)CC1	-9	i	-12	-7	-3	-2	-4	4
CCN(c1ccccc1)S(=O)(=O)c1ccc(OC)c(OC)c1	6	i	·	0	·	-10	-6	1
COC(=O)[C@@H](NC(=O)c1cc(COc2cncc(Cl)c2)on1)c1ccccc1	9	i	1	-14	2	-1	-4	0
COc1ccc(-n2c(SCC(=O)N3CCOCC3)nnc2C(C)N2CCCCC2)cc1 (centres undefined)	19	i	·	4	·	2	·	·
CCN(CC(=O)NCc1ccc(F)cc1)C(=O)CN1CCN(c2ccc(OC)cc2)CC1	-3	i	1	28	11	-5	-3	-2

Arranged by length of the SMILES (highest first): some entries from above
SMILES	CSC inhib	Rce1 inh	UUG fidelity	PABP FP inh	HIV Env fusion	eIF4H inh	MT1-MMP act inh	MT1-MMP act inh RFP	others
Cc1ccc(S(=O)(=O)Cn2nnnc2C(CC(C)C)N2CCN(c3ccc(F)cc3)CC2)cc1 (centres undefined)	4	i	-2	0	-26	-14	-3	-4
CCn1cc(C(=O)NCCCOC)c(=O)c2cc(S(=O)(=O)N3CCC(C)CC3)ccc21	1	i	-19	-3	3	-1	-1	0
Cc1c(-c2ccccc2)oc2c(C(=O)OCC(=O)Nc3cccc(F)c3)cccc2c1=O	0	i	-1	51	-3	-4	2	1	eIF4H inh retest=6;PABP FP inh retest=4
CCN(CC(=O)NCc1ccc(F)cc1)C(=O)CN1CCN(c2ccc(OC)cc2)CC1	-3	i	1	28	11	-5	-3	-2
COc1ccc2[nH]c(=O)c(CN(CCN(C)C)C(=O)NCc3ccccc3)cc2c1	-16	i	-8	0	·	6	3	6
O=C1C2CC=CCC2C(=O)N1c1ccc(OCC(O)Cn2nnc3ccccc32)cc1 (centres undefined)	-13	i	-14	5	6	-7	-1	-10
COc1ccc(-n2c(SCC(=O)N3CCOCC3)nnc2C(C)N2CCCCC2)cc1 (centres undefined)	19	i	·	4	·	2	·	·
C[C@H](O)[C@H](O)[C@H]1CNc2nc(N)[nH]c(=O)c2N1	-8	i	-18	·	18	·	-4	3
CN1CCN(C(=S)NC(=O)c2cccc([N+](=O)[O-])c2)CC1	-9	i	-12	-7	-3	-2	-4	4
Nc1nc(NCc2ccco2)nc(N2CCCCCC2)c1[N+](=O)[O-]	-11	i	4	19	·	5	6	-20
CCN(c1ccccc1)S(=O)(=O)c1ccc(OC)c(OC)c1	6	i	·	0	·	-10	-6	1
COC(=O)COc1ccc(S(=O)(=O)N2CCOCC2)cc1C	·	i	·	-1	-5	-6	6	3
Cc1cc(NC(=O)c2ccccc2)n(C(C)(C)C)n1	-1	i	-6	4	1	4	2	-2
COc1ccccc1CNC(=O)c1cc2sccc2n1C	·	i	·	-5	·	-9	5	3

(continued)
SMILES	CSC inhib	Rce1 inh	UUG fidelity	PABP FP inh	HIV Env fusion	eIF4H inh	MT1-MMP act inh	MT1-MMP act inh RFP	others
CCc1ccc(C(=O)N/N=C/c2cccc3ccccc23)nc1	12	i	·	20	·	12	-5	0
COc1ccccc1CCNC(=O)CCCn1nc(C)c2c(C)n(-c3ccc(C)cc3)nc2c1=O	-16	i	-11	0	13	4	6	3
Cc1ccc(/C=N/NC(=O)CSc2nc3ccccc3n2Cc2ccccc2)o1	26	i	·	7	20	18	5	-5
Cc1nc(C(F)(F)F)c(C(=O)NC(=O)Nc2ccccc2)s1	-2	i	-18	3	-27	2	8	6

Screens: PubChem BioAssay, several laboratories
